# Rango dissoc inh = inhibitors of RanGTP-induced Rango-importin beta complex dissociation; Potency, µM (highest dose often 46.1 µM), inactives show at the top dose activity change, negative = inhibition; Biochemical FRET Rango-importin beta, RanGTP-induced dissociation; O95149+P62826; 340,000 compounds, 0.071% hits; active means falling FRET ratio curve, often poorly fitted, with flat reads before Ran was added; inconclusive means other falling curves, or compound fluorescence or quenching; inactive means flat or rising ratio curve;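 further: potency means the concentration at half of the fitted maximal effect; % of control where 0% means no effect; nearly all actives have a fitted effect of over 45% in size; -100% = wells without RanGTP and RCC1; the record marks most hits as doubtful in a second field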
#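 Rango/importin beta premix (0.1/0.25 uM final), PBS + 1 mM DTT + 0.02% Tween-20 + 0.1% BSA; cpd 5 min RT; FRET pre-read; + RanGTP-RCC1 (0.6 uM Ran, 2 mM GTP, 0.2 uM RCC1); 45 min RT; FRET post-read, ex 430, em 486/530 nm.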
# miR-21 FLuc = miR-21 reporter, rising signal; 340,000 tested, under 10 active; HeLa miR-21 FLuc reporter, luciferase, 48 h; AID 2288; Potency, µM (top dose mostly 38.3 µM), for inactives: at the top dose reporter change, positive = more light; active = well fitted rising curve with a large enough effect; inconclusive = small, poorly fitted or top-dose-only effect; inactive = no such curve, though single readings can be large or run the other way;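 further: % of control where 0% means no effect; miR-21 action dims this reporter so a rising signal means less miR-21 action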
#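 HeLa cells endogenously expressing miR-21, stably carrying CMV-driven firefly luciferase with a downstream miR-21 binding site, 2000 cells/well. Titrations up to approximately 40 uM, 48 hours; luciferase luminescence read.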
# GLA inh pH 4.5 = inhibitors of human alpha-galactosidase A at pH 4.5; P06280; activity change, negative = inhibition, % at 105 µM; 230,000 tested, under 10 active; purified enzyme, 4-MU-alpha-Gal fluorescence, pH 4.5; inconclusive = small, poorly fitted or top-dose-only inhibition, or a rising curve; inactive = flat fitted curve, though single readings scatter; no compound was filed as active;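 further: 0% = full activity with enzyme and -100% = basal without enzyme; dose as in the result columns while the protocol names 77 µM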
# Target sequence (P06280 whole entry, looked up): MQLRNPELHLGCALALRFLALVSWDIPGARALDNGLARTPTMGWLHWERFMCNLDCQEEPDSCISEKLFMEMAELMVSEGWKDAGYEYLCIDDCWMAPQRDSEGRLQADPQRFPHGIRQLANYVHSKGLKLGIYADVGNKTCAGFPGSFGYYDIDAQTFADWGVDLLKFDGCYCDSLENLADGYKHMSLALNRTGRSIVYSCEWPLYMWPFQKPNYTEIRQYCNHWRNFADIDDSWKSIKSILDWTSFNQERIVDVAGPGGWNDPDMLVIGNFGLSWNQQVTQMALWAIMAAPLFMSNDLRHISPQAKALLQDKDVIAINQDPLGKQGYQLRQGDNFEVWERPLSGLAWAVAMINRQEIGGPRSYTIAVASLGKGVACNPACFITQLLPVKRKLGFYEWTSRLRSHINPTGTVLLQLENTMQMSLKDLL
# Rango complex inh = prevents formation of the Rango-importin beta complex | Q14974 | Rango CFP/YFP FRET sensor + importin beta, 45 min | Potency, µM (series often up to 92.2 µM), without a hit: at the top dose inhibition of complex formation | 340,000 compounds, 0.031% hits; active = rising FRET ratio curve, often small or poorly fitted; inconclusive = mostly compound fluorescence or quenching in the first reads; inactive = flat curves in all reads;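 further: potency means the concentration at half of the fitted maximal effect; 0% = DMSO wells and 100% = buffer wells lacking importin beta; nearly all actives have a fitted effect of over 15% in size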
#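 FRET biosensor Rango (snurportin 1 IBB between N-terminal EYFP and C-terminal Cerulean), 50 nM in PBS/1 mM DTT/0.02% Tween-20/0.1% BSA, preincubated 5 min RT with compound; 0.125 microM importin beta added, 45 min RT, CFP/YFP FRET ratio read.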
# * hit, by the source's call; ? = inconclusive; nt = no result given; & = joins results of further samples; [ ] = another dose, or the depositor's remark. Some of the compounds tested; rates above refer to the full screens.
Rango dissoc inh	Rango complex inh	miR-21 FLuc	GLA inh pH 4.5	Compound
3.1%	0.9%	-14.9%	-3.0	CCOC(=O)c1c(C)n(C)c2ccc(OCC(O)CN3CCCCCC3)cc12 (stereo unspecified)
-7.4%	-2.4%	0.4%	-8.5	CC(=O)n1cc([C@@H]2C=C(C(=O)N3CCOCC3)O[C@H](OCc3ccc(CO)cc3)C2)c2ccccc21
1.2%	-2.3%	12.4%	-22.0	Cc1ccc(-c2noc(CCC(=O)NCC3CCN(Cc4cccc(C)c4)CC3)n2)cc1
6.5%	-1.6%	-0.2%	-6.0	COc1ccc(NC(=O)Cn2nnc(C(=O)NCCc3ccc(OC)c(OC)c3)c2N)c(OC)c1
0.5%	?	0.1%	-5.0	CCn1c(SCC(=O)N2CCCC(C)C2)nnc1-c1ccc(S(=O)(=O)N2CCN(C)CC2)cc1 (stereo unspecified)
-3.6%	-1.9%	-3.8%	nt	CC(=O)Nc1ccc(CN2CCC(Oc3ccc(C(=O)N4CCCC4)cc3)CC2)cc1
25.5%	4.2%	-15.6%	nt	CC(Sc1nnc(-c2ccccc2Br)o1)C(=O)N1CCOCC1 (stereo unspecified)
4.0%	-1.3%	-4.0%	5.2	COc1cc(NC(=O)COC(=O)Cc2ccc(-c3ccccc3)cc2)cc(OC)c1
0.4%	3.4%	nt	nt	O=[N+]([O-])c1cccc(-c2noc3c2-c2nc(Cc4cccc5ccccc45)sc2CC3)c1
3.4%	-2.4%	-1.1%	nt	O=C(COc1ccc(Cl)cc1)NCCCNC(=O)c1ccncc1
0.0%	-0.8%	-0.4%&-1.0%	nt	Cc1ccc(-c2ccc(=O)n(Cc3ccc(F)cc3)n2)cc1
10.7%	1.7%	?	2.5	CCc1cc(SC#N)cc(CC)c1NC(=O)CCl
7.0%	2.8%	-6.9%	-2.5	O=C(Nc1ncc(Cc2ccccc2Cl)s1)c1ccc(-c2cccc([N+](=O)[O-])c2)o1
15.9%	-2.5%	-6.5%	-7.5	CCOC(=O)C1(C(F)(F)F)N=C(C(F)(F)F)Nc2cc(C)c(C)cc21 (stereo unspecified)
8.7%	3.8%	-2.6%	-8.2	C=CCNC(=O)/C(=C/c1cccc([N+](=O)[O-])c1)NC(=O)c1ccccc1
-10.7%	-0.9%	-34.7%	2.8	C/C(N)=C(/C#N)C(=O)CSc1nnc(NC(C)C)s1
0.6%	0.3%	0.7%	nt	O=C(CN1CCCCC1)N1CCN(c2ccccc2)CC1
2.5%	-0.4%	-1.4%	nt	Cn1c(CNC(=O)CNC(=O)Cc2ccccc2)cc(=O)n(C)c1=O
3.2%	1.8%	1.8%	3.9	Cc1c(C(=O)O)sc2nc(C)n(C)c(=O)c12
22.6%	0.1%	-1.5%	-9.9	COC(=O)c1ccc(C2c3c(n[nH]c3C)C(=O)N2c2ccc(C)cc2)cc1 (stereo unspecified)
16.6%	-0.4%	-10.4%	1.2	O=c1c2ccccc2ncn1-c1ccccc1C(F)(F)F
7.4%	0.0%	nt	nt	Cc1cccc(CCNC(=O)C2CCC(=O)N(Cc3ccccc3F)C2)n1 (stereo unspecified)
-13.9%	2.1%	12.2%	-4.5	Fc1ccc2c(c1)C(c1cccnc1)=NNC(c1cccs1)=N2
-1.7%	-0.9%	-0.4%	-4.2	Cc1nc2cc(Cl)ccc2n1CCO
-0.1%	1.3%	-13.2%	-6.1	CN(C)C(=S)Nc1cccc(C(F)(F)F)c1
-7.6%	1.3%	-2.6%	nt	COc1ccc(-c2noc(C3CCCN(C(=O)c4cccc(C)c4)C3)n2)cc1 (stereo unspecified)
0.8%	3.8%	-10.0%	-0.7	CN(C)C(CNC(=O)Nc1cccc(Cl)c1)c1cccnc1 (stereo unspecified)
13.7%	-2.0%	-0.5%	nt	Cc1ccc(C)c(S(=O)(=O)N2CCN(C(=O)CSc3ccccc3)CC2)c1
5.8%	-0.4%	-18.2%	nt	C/C(=N\NC(=O)c1ccc(F)cc1)c1ccccn1
-13.0%	-4.7%	2.3%	nt	CC(Oc1ccc2c3c(c(=O)oc2c1)CCCC3)C(=O)NCc1ccccn1 (stereo unspecified)

# Sorted by value in GLA inh pH 4.5 (low to high): 3 of the compounds above.
mol,GLA inh pH 4.5
COC(=O)c1ccc(C2c3c(n[nH]c3C)C(=O)N2c2ccc(C)cc2)cc1 (stereo unspecified),-9.9
O=c1c2ccccc2ncn1-c1ccccc1C(F)(F)F,1.2
C/C(N)=C(/C#N)C(=O)CSc1nnc(NC(C)C)s1,2.8

# The list goes on.
Rango dissoc inh	Rango complex inh	miR-21 FLuc	GLA inh pH 4.5	Compound
-22.4%	?	-63.9%	-5.1	COc1ccc(-c2nc3n(c2C)Cc2ccccc2-3)cc1
-16.1%	-0.1%	5.3%	0.4	CCOc1ccc(NS(=O)(=O)c2ccc(NS(=O)(=O)c3ccccc3)cc2)cc1
14.4%	0.2%	-6.7%	7.1	CCn1c(-c2cc(Cl)ccc2OC)n[nH]c1=S
-2.3%	1.5%	1.0%	5.0	CC(CCc1ccccc1)NC(=O)C(=O)NCCO (stereo unspecified)
24.2%	-1.5%	nt	nt	CC(OC(=O)Cn1[nH]c(=O)c2ccccc2c1=O)C(=O)Nc1ccc(F)cc1Cl (stereo unspecified)
-6.6%	0.9%	1.6%	5.1	CN1CCN(C(=O)c2ccccc2-c2ccccc2C(=O)O)CC1
7.3%	-3.0%	nt	nt	COc1cc(/C=C/C(=O)OCC(=O)NCCC2=CCCCC2)cc(OC)c1OC
1.5%	-0.5%	17.0%	nt	O=C(c1ccc(Oc2ccc(Cl)cc2)c([N+](=O)[O-])c1)N1CCCC1
0.7%	-1.9%	-6.6%&-15.2%	nt	O=C1NC(NS(=O)(=O)c2ccccc2)(C(F)(F)F)C(=O)N1CCc1ccccc1 (stereo unspecified)
-1.8%	-0.7%	-26.5%	-3.8	Nc1nc(CSCCO)nc(Nc2ccc(F)cc2)n1
-19.7%	2.5%	-20.4%	-2.3	CSc1nc(N2CCOCC2)c2c3c(sc2n1)CCC3
0.3%	-1.5%	1.5%	nt	COc1ccc(S(=O)(=O)NCCNC(=O)N2CCOCC2)cc1
26.2%	2.1%	6.9%	-4.5	COc1ccc(N2CCN(C(=O)C3CCCN(S(=O)(=O)c4c(C)noc4C)C3)CC2)cc1 (stereo unspecified)
-8.7%	1.9%	-6.1%	-2.7	COc1ccc(N2CCN(CC(=O)c3c[nH]c4ccccc34)CC2)cc1
1.7%	1.7%	-7.0%	1.3	OCC1(CCCc2ccccc2)CCN(Cc2ccc(F)cc2)CC1
-17.3%	-4.3%	1.1%	2.6	CN(CCCC(=O)Nc1nccs1)S(=O)(=O)c1ccc(Cl)cc1
12.9%	-1.6%	nt	nt	COc1ccc(SCCN2CC[C@@H](O)CCC2=O)cc1
-4.0%	0.9%	-7.0%	2.9	C=CCNC(=O)c1ccc(Cl)cc1Cl
-1.0%	0.0%	-14.1%	-6.7	COc1ccc(NS(=O)(=O)c2cc(NC(=O)CNC(=O)c3cccc(OC)c3)ccc2C)cc1
3.2%	-1.8%	nt	nt	COc1ccc(CCN2CC(C(=O)OCC(=O)Nc3c(C)nn(-c4ccccc4)c3C)CC2=O)cc1OC (stereo unspecified)
24.9%	?	-3.2%	-5.4	Cc1ccccc1NC(=O)C1(NC(=O)c2cccc(N3C(=O)CSC3c3ccccc3)c2)CCCCC1 (stereo unspecified)
28.1%	-4.6%	-1.6%	2.1	CCC(C)NC(=O)CSc1nc2ccccc2c(=O)n1CCCC(=O)NCC1CCCO1 (stereo unspecified)
-0.3%	-4.2%	-7.4%	6.6	Cc1cc(C)c2nc(SCC(=O)NNC(=O)c3ccco3)c(C)cc2c1
4.5%	-0.6%	nt	nt	CC(C)(C)c1ccc(OCCC(=O)NNC(=O)c2ccncc2)cc1
5.0%	2.7%	-6.0%	nt	COc1cc(CCNC(=O)CCCn2c(=O)c3cccn3c3cccnc32)cc(OC)c1OC
-2.3%	0.0%	-55.2%	nt	CCCCc1nc2cc(C(=O)N3CCCCC3C(=O)OC)ccc2o1 (stereo unspecified)
-8.3%	1.8%	-0.2%	-3.2	O=C(NC1CCCCC1)C(Cc1ccccc1)NS(=O)(=O)c1cccs1 (stereo unspecified)
-2.7%	-2.8%	0.3%	-10.9	CCCCN(Cc1cc2cccc(C)c2[nH]c1=O)S(C)(=O)=O
-15.7%	0.5%	-1.1%	2.5	CCCc1cc(C(=O)OC)c(NC(=O)CCCC(=O)O)s1
1.4%	-0.8%	-22.1%	-8.8	CCOC(=O)C1CCN(C(=O)NC23CC4CC(CC(C4)C2)C3)CC1
1.8%	-3.0%	-3.3%	0.4	CCOC(=O)CSc1nnc(SCCN2C(=O)c3ccccc3C2=O)s1
-7.2%	?	-1.6%	3.5	O=C(O)c1ccccc1NCN1C(=O)C2CC=C(Cl)CC2C1=O (stereo unspecified)
-12.1%	0.0%	nt	nt	COc1cccc(CNC(=O)c2ccc(NC(=O)CC3SC(N4CCCCC4)=NC3=O)cc2)c1 (stereo unspecified)
14.8%	-2.3%	12.6%	0.0	Cc1ccc(Nc2nc(-c3ccc(S(=O)(=O)N4CCCC4)cc3)cs2)cc1C
-23.0%	2.4%	-16.8%	8.4	O=C(Nc1nnc(CC2=CCCCC2)s1)Nc1ccccc1F
0.1%	-3.8%	-6.6%	-3.9	CC1(C)Cc2cccc(OCC(=O)Nc3ccccc3N3CCOCC3)c2O1
17.0%	-2.6%	-3.1%	-2.6	C/C(Cl)=C\Cn1c(Nc2ccccc2)nc2c1c(=O)n(C)c(=O)n2C
-18.8%	-0.4%	4.2%	2.6	COc1ccc(N2CCN(C(=O)Cn3nnc(-c4ccc(N(C)C)cc4)n3)CC2)cc1
-16.3%	-0.3%	-0.2%	nt	CC(=O)Nc1ccc(C(=O)N/C(=C/c2ccccc2)C(=O)N2CCCCC2)cc1
-2.4%	3.7%	-11.9%	-2.5	Cc1ccc(N2C(=O)c3n[nH]c(C)c3C2c2cccnc2)cc1 (stereo unspecified)
-3.4%	-1.7%	1.0%	-17.5	Cc1ccc([N+](=O)[O-])cc1S(=O)(=O)NCCc1c(C)[nH]c2c(C)cccc12
-21.1%	-1.2%	-4.6%	-3.5	Cc1ccc(N2CC(C(=O)Nc3nnc(C)s3)CC2=O)cc1 (stereo unspecified)
18.0%	-0.9%	nt	nt	NS(=O)(=O)c1ccc(CNC(=O)c2cc(S(=O)(=O)N3CCOCC3)c(Cl)cc2Cl)cc1
-12.7%	6.0%	-0.1%	nt	CCOc1ccc(S(=O)(=O)N(C)CC(=O)N2CCCC2)cc1
4.8%	-0.1%	-6.6%	-8.6	Nc1cc(S(=O)(=O)c2ccc(O)c(N)c2)ccc1O
-14.2%	-5.1%	-17.2%	nt	O=C(N/N=C\c1cc2c(cc1[N+](=O)[O-])OCO2)c1cccs1
-5.7%	-1.3%	13.5%	nt	CCC(=O)c1ccc(OCC(=O)Nc2cc(S(=O)(=O)N3CCCCC3)ccc2OC)cc1
-18.3%	?	-1.1%	-0.1	CC(C)CCn1c(CN2CCN(C(=O)c3ccco3)CC2)nc2c1c(=O)n(C)c(=O)n2C
-5.7%	-4.4%	-24.8%	-11.0	COc1ccc(NC(=O)/C(C#N)=C/c2ccc(Br)o2)cc1
-9.4%	-1.8%	-3.3%	2.9	COC(=O)c1c(NC(=O)CSc2nc(-c3ccco3)cc(C(F)(F)F)n2)sc2c1CCCC2
-8.7%	0.0%	-18.8%	7.5	Cc1cc(-c2nnc3sc(-c4ccc(Cl)cc4Cl)nn23)n[nH]1
-6.3%	1.6%	0.7%	-7.5[21.1 µM]	Cc1cc(NC(=O)c2ccc(F)cc2)n(-c2ccccn2)n1
-2.1%	-3.4%	-2.9%	nt	COc1cc(C(=S)N2CCOCC2)ccc1OC(=O)c1cc(OC)c(OC)c(OC)c1
-0.3%	6.8%	-8.6%	4.3	COCc1nnc(SCC(=O)NC(C)c2ccccc2)n1-c1ccccc1 (stereo unspecified)
6.2%	-4.2%	-7.8%	-4.4	CCCCSCc1[nH]c(=O)[nH]c1C(=O)CCCCC(=O)OCC

# Assay outcomes from PubChem.
